eIF4H FP inh – human eIF4H binding inhibitors, primary screen, translation initiation inhibitor project, biochemical, uHTS, fluorescence polarization. eIF4H fluorescence polarization binding assay. Eukaryotic translation initiation factor 4H (Homo sapiens), Q15056. inhibition, % at 35 µM. 290,000 compounds, 0.94% hits. AID 2012, 2009;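 active means 50% or more with normal probe brightness, or confirmed in later tests; inconclusive means above 50% with abnormal brightness, or retests that disagree; inactive means below 50% or failed in later tests; about a fifth of its hits are not listed in these tables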;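 further: calls also rest on retests at 20 µM and on dose response follow-up; 0% = protein and probe with vehicle and 100% = probe without protein; strong numbers were not always called active; many hits fall short of the cut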
Rce1 inh – yeast Rce1p protease inhibitors, primary screen, biochemical, fluorescence, cell-free homogeneous. yeast membranes, quenched prenylated peptide cleavage fluorescence. calls only. 290,000 compounds, 0.27% hits;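 active means fall in fluorescence gain of 50% or more versus controls, with final raw signal at or below 3038400; inconclusive means same 50% fall but final raw signal above 3038400; inactive means fall in fluorescence gain under 50%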;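 further: plate controls were neutral control wells for no effect and wells lacking membranes for full effect; tested at 10 µM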
Target sequence (Q03530 whole entry, looked up): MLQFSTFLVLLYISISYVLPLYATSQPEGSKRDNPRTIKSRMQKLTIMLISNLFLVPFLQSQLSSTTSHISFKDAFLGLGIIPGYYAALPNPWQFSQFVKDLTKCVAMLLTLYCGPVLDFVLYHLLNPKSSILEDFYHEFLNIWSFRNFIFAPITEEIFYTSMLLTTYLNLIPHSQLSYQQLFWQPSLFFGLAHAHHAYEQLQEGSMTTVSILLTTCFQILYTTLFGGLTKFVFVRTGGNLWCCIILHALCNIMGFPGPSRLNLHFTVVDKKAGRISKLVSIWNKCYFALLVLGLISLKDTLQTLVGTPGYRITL
MT1-MMP act inh – blockers of MT1-MMP proenzyme processing, primary screen, HT1080 RFP-PRO-GFP cells, GFP/RFP fluorescence. GFP/RFP ratio change, % at 20 µM. GFP/RFP ratio fluorescence, overnight; percent of plate control window, DMSO zero. 360,000 compounds, 0.061% hits. Matrix metalloproteinase-14 (Homo sapiens), P50281;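 active means GFP/RFP ratio change of at least 30% with cell ATP level not reduced by more than half and red fluorescence within 50% of control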; further: strong numbers were not always called active
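Assay system: HT1080 cells carrying an RFP-PRO-GFP reporter | Dosing: Single dose of 20 µM compound, 1% DMSO final | Incubation: Cells overnight before dosing, compound overnight, 37 °C, 5% CO2 | Evaluation: GFP/RFP fluorescence ratio | Control set: DMSO and RFP-L50D-GFP cell wells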
Yeast UUG start – modulators of yeast start codon fidelity, primary screen, whole organism, S. cerevisiae, single point, plate reader; S. cerevisiae UUG-firefly luciferase reporter, luminescence/redox ratio; AID 602363, 2012; 350,000 compounds, 0.13% hits; activity score, % at 18.7 µM;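 active means replicate mean at a twofold rise or more, about +100% in these data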;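 further: firefly luciferase made from a UUG start codon reports start codon fidelity; reporter light over untreated wells divided by growth signal over untreated wells; some hits fall short of that in this replicate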
CSC inhib – cancer stem cell viability inhibitors, primary screen, luminescence; cancer stem cell-like cells viability; inhibition, % at 7.5 µM; 300,000 compounds, 1.1% hits; AID 2717, 2010;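 active means mean at 75% or more and at least half the replicates too; inconclusive means mean and replicates disagree; tested in HMLE shEcad cells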;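 further: 0% = median of negative and 100% = median of positive control wells; the first replicate is given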
PABP FP inh – PABP poly(A) RNA binding inhibitors, primary screen, biochemical, fluorescence polarization, uHTS; 290,000 compounds, 1% hits; inhibition, % at 35 µM; Polyadenylate-binding protein 1 (Homo sapiens), P11940;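 active means 50% or more with normal probe brightness, or confirmed in later tests; inconclusive means above 50% with abnormal brightness, or retests that disagree; inactive means below 50% or failed in later tests; about a fifth of its hits are not listed in these tables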;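 further: calls also rest on retests at 20 µM and on dose response follow-up; controls were probe without protein and protein plus probe with vehicle; some compounds called inactive have numbers as strong as hits; many hits fall short of the cut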
HIV Env fusion – inhibitors of HIV-1 Env-driven cell-cell fusion, primary screen, HeLa-JRFL effector, CEM21 target cells, luciferase | inhibition, % at 12.3 µM | 360,000 compounds, 1.1% hits | AID 651610, 2012;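 active means mean replicate inhibition score of at least 50 and every replicate individually at or above 50; inconclusive means only one of the two criteria met; inactive means mean below 50 and not all replicates reaching 50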;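 further: 0% = plate neutral controls and 100% = maraviroc near 300 nM; one replicate is shown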
MT1-MMP act inh RFP – recorded beside MT1-MMP act inh, whose call it bears; RFP signal change, %; measured here: RFP expression control read;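 0 = vehicle wells; hits needed this value within 50% of zero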
An asterisk follows results filed as active; i = inactive; ? = inconclusive; · = no result given; & = joins results of further samples; [ ] = dose if it differs, or a comment. An excerpt, so the mix of outcomes need not match the whole.

SMILES	eIF4H FP inh	Rce1 inh	MT1-MMP act inh	MT1-MMP act inh RFP	Yeast UUG start	CSC inhib	PABP FP inh	HIV Env fusion
CCC(C)n1c(O)c(C=NCCc2ccccc2)c(=O)[nH]c1=S (centres undefined)	2.5	i	-4.3	-4.0	-9.9	-3.9	-1.2	11.1
C=Cn1ccnc1P(O)(=S)c1nc(C)c(CCOC(C)=O)s1 (centres undefined)	3.2	i	-0.8	1.0	·	-12.2	1.0	-12.0
COc1ccc(Cc2c(O)[nH]c(=S)[nH]c2=O)cc1	-4.7	i	-1.3	0.3	-6.3	-12.2	8.9	-13.7
CCN1CCC2(CC1)NC(CO)(CO)CO2	5.3	i	12.0	2.1	·	·	-6.9	·
COc1ccc2c(c1OC)C(=O)OC2c1c(O)n(Cc2ccc(F)cc2)c(=O)[nH]c1=O (centres undefined)	41.8	i	-0.2	1.3	-15.2	·	-11.2	·
Cc1ccccc1NC(=O)NCCN1CC1	-3.3	i	1.7	5.5	-10.0	2.0	-3.7	0.0
COc1ccc(-c2nn(CCC#N)cc2C(=O)O)cc1	-5.8	i	-5.8	1.3	·	1.1	-17.0	-7.2
CC(OC(=O)c1cn(C)c2ccccc12)C(=O)N1CCCC1 (centres undefined)	·	·	2.8	-1.3	-2.5	-0.8	·	·
O=c1[nH]c(O)c(Cc2ccc3c(c2)OCO3)c(=O)[nH]1	-10.3	i	-1.0	1.8	·	-8.7	1.7	4.4
Cc1ccc(-c2nn(CCC#N)cc2C(=O)O)cc1C	-12.3	i	3.7	2.2	·	-4.2	-7.3	3.1
Cc1cccc(-n2c(-c3ccccc3)nc3ccccc3c2=O)n1	5.0	·	0.9	2.6	-17.0	-10.9	4.9	3.2
NC1CC2CCCCC2CC1(O)c1ccccc1 (centres undefined)	·	·	15.3	-0.3	-16.7	·	·	3.5
Cc1ccc(N(C)C(=O)Oc2cccc3ccc(C)nc23)cc1	3.0	i	4.8	2.8	-15.4	-3.1	0.4	·
CCC(=NCCO)c1c(O)n(-c2ccc(Cl)cc2)c(=O)[nH]c1=O	-1.2	i	-0.5	-0.1	-10.9	-11.6	-1.0	-22.4
O=c1[nH]c(=O)n(C2CCCCC2)c(O)c1C=Nc1ccc(N2CCOCC2)cc1	4.4	i	3.8	2.3	-14.0	-4.7	0.2	·
COC(=O)C(NC(=S)N1CC2C[C@@H](C1)Cn1c2cccc1=O)C(C)C (some centres undefined)	-5.5	i	1.2	-0.9	2.5	·	1.5	-4.1
CCN(CC)CCCN=Cc1c(O)n(-c2ccccc2F)c(=O)[nH]c1=O	-0.7	i	-3.8	1.0	·	-6.7	2.0	·
COC(=O)C1=C(c2ccc(OCc3ccccc3)cc2)C[C@@H]2CC[C@H]1N2C(=O)NCc1ccccc1	·	·	-3.0	-14.0	-0.8	23.0	·	-99.1
Cn1c(O)c(C(=Nc2ccc(F)cc2)c2ccccc2Cl)c(=O)n(C)c1=O	-6.0	i	4.0	-3.4	·	-14.4	-1.7	-20.5
O=C(OCC(=O)c1ccc([N+](=O)[O-])cc1)/C(=C\c1ccc(Cl)cc1)NC(=O)c1ccccc1	0.2	i	-8.7	0.0	-5.6	·	5.6	?
CCCCC/C(=N/O)c1c(C)[nH]c2ccccc12	5.3	·	2.8	1.6	·	0.0	9.1	-3.5
Cc1c(C(c2ccc(Br)cc2)c2c(O)c3ccccc3oc2=O)c(=O)n(-c2ccccc2)n1C (centres undefined)	-2.7	i	-3.1	-0.7	-17.2	5.1	2.6	-13.9
COC(=O)C1=C(c2ccc(-c3ccccc3)c(F)c2)C[C@@H]2CC[C@H]1N2C(=O)NC1Cc2ccccc2C1	·	·	-12.0	-11.5	-16.5	23.5	·	-1.5
CCOP(=O)(OCC)/C(C#N)=C/c1ccoc1	49.5	i	-11.0	1.3	·	-3.6	29.3	4.3
COc1ccc(OC(=O)N(C)C[C@@H]2OCc3cnnn3CCCC(=O)N([C@@H](C)CO)C[C@H]2C)cc1	·	·	-0.1	7.3	3.1&-1.7	·	·	-9.8[16.7 µM]

Remaining list, next part.
SMILES	eIF4H FP inh	Rce1 inh	MT1-MMP act inh	MT1-MMP act inh RFP	Yeast UUG start	CSC inhib	PABP FP inh	HIV Env fusion
Cc1nn(Cc2ccccc2)c(C)c1C(=O)NCc1ccccc1F	-11.0	i	1.6	0.2	·	-9.1	7.7	14.5
O=C(O)c1ccc(N=Cc2c(O)[nH]c(=O)[nH]c2=O)cc1	?	i	0.4	-0.4	-16.6	-4.1	?	-3.3
Cc1cc(C(=O)OCC(=O)Nc2ccc(F)cc2F)c(C)n1C1CC1	·	·	4.8	0.5	-7.8	-5.1	·	·
CSc1ncc(Cl)c(C(=O)O)n1	0.5	i	2.3	-1.3	·	-4.2	14.2	·
COc1ccc(NC(=O)C2C3CCC(O3)C2C(=O)O)c(OC)c1 (centres undefined)	9.2	i	5.5	9.3	-13.9	0.4	-4.4	-10.5
CNCCc1ccccc1	-1.5	i	·	·	·	-5.4	-1.9	·
CCOC(=O)c1ccc(N2C(=O)CC(N3CCC(C#N)(c4ccccc4)CC3)C2=O)cc1 (centres undefined)	4.3	i	-1.8	1.8	-6.6	-5.5	4.9	-19.3
C#CCN1CCN(c2ccc(F)cc2)CC1	4.5	i	-7.5	2.2	·	-12.8	8.9	11.8
CC(=O)OC1CC(OC2C(O)CC(OC3C(O)CC(OC4CCC5(C)C(CCC6C5CC(O)C5(C)C(C7=CC(=O)OC7)CCC65O)C4)OC3C)OC2C)OC(C)C1OC1OC(CO)C(O)C(O)C1O (centres undefined)	·	·	-40.0	-32.3	12.0	·	·	-18.0

Molecules above with an NH in an aromatic ring:
SMILES	eIF4H FP inh	Rce1 inh	MT1-MMP act inh	MT1-MMP act inh RFP	Yeast UUG start	CSC inhib	PABP FP inh	HIV Env fusion
CCC(C)n1c(O)c(C=NCCc2ccccc2)c(=O)[nH]c1=S (centres undefined)	2.5	i	-4.3	-4.0	-9.9	-3.9	-1.2	11.1
COc1ccc(Cc2c(O)[nH]c(=S)[nH]c2=O)cc1	-4.7	i	-1.3	0.3	-6.3	-12.2	8.9	-13.7
COc1ccc2c(c1OC)C(=O)OC2c1c(O)n(Cc2ccc(F)cc2)c(=O)[nH]c1=O (centres undefined)	41.8	i	-0.2	1.3	-15.2	·	-11.2	·
O=c1[nH]c(O)c(Cc2ccc3c(c2)OCO3)c(=O)[nH]1	-10.3	i	-1.0	1.8	·	-8.7	1.7	4.4
CCC(=NCCO)c1c(O)n(-c2ccc(Cl)cc2)c(=O)[nH]c1=O	-1.2	i	-0.5	-0.1	-10.9	-11.6	-1.0	-22.4
O=c1[nH]c(=O)n(C2CCCCC2)c(O)c1C=Nc1ccc(N2CCOCC2)cc1	4.4	i	3.8	2.3	-14.0	-4.7	0.2	·
CCN(CC)CCCN=Cc1c(O)n(-c2ccccc2F)c(=O)[nH]c1=O	-0.7	i	-3.8	1.0	·	-6.7	2.0	·
CCCCC/C(=N/O)c1c(C)[nH]c2ccccc12	5.3	·	2.8	1.6	·	0.0	9.1	-3.5
O=C(O)c1ccc(N=Cc2c(O)[nH]c(=O)[nH]c2=O)cc1	?	i	0.4	-0.4	-16.6	-4.1	?	-3.3

Reformatted with each value named: entries from further up.
Molecule: COc1ccc(NC(=O)C2C3CCC(O3)C2C(=O)O)c(OC)c1 (centres undefined)
  eIF4H FP inh: 9.2 | Rce1 inh: i | MT1-MMP act inh: 5.5 | MT1-MMP act inh RFP: 9.3 | Yeast UUG start: -13.9 | CSC inhib: 0.4 | PABP FP inh: -4.4 | HIV Env fusion: -10.5

Molecule: CNCCc1ccccc1
  eIF4H FP inh: -1.5 | Rce1 inh: i | MT1-MMP act inh: · | MT1-MMP act inh RFP: · | Yeast UUG start: · | CSC inhib: -5.4 | PABP FP inh: -1.9 | HIV Env fusion: ·

Source: PubChem (several laboratories)
